Screening data: PubChem BioAssay, National Center for Advancing Translational Sciences (NCATS)
RE007 growth inh – less growth of the S. pombe RE007 Vpr strain; S. pombe RE007 Vpr strain, BacTiter-Glo ATP luminescence, 24 h; control for the full effect not named in the record; Potency, µM (series often up to 92.2 µM), without a hit: at the highest dose activity change, negative = less growth; 360,000 tested, 0.21% active; AID 651644; active = well fitted falling curve with a large enough effect; inconclusive = small, poorly fitted or top-dose-only effect; inactive = no such curve, though single readings can be large or run the other way;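 further: nearly all actives have a fitted effect of over 50% in size; the assay follows cell death caused by Vpr and the record does not say whether a fall means rescue or toxicity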
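Fission yeast RE007 carrying one integrated HIV-1 vpr copy, seeded at OD 0.01 in PMG+AL medium with 23 nL pinned compound. Grown 24 h at 30 degrees; viability read by BacTiter-Glo luminescence after 5 min.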
2A StopGo – lowers the luciferase signal of an FMDV 2A StopGo reporter. 410,000 tested, 1.2% active. Potency, µM (doses to about 57.9 µM), inactives show at the top dose signal change, negative = less light. AID 1159524. human cells with a luciferase reporter of 2A StopGo recoding; control for the full effect not named in the record; active = well fitted falling curve with a large enough effect; inconclusive = small, poorly fitted or top-dose-only effect; inactive = no such curve, though single readings can be large or run the other way; tested in HEK293T cells; further: nearly all actives have a fitted effect of over 45% in size; luciferase light after 4 h
The depositor's hits bear a star; u = inconclusive; [ ] = dose if it differs, or a comment. On the % scale 0 is the no-effect control and ±100 the full control effect; potency means the concentration at half of the fitted maximal effect. An excerpt; the hit share may differ from the screen's.

The line under a structure holds: RE007 growth inh | 2A StopGo
> CCOC(=O)C1(C)CCN1C(=O)c1cc(C)n(C(C)(C)C)n1 (stereo not given)
  2% | 5%
> CC(C)NC(=O)C1(C)CCCN1C(=O)c1ccc2c(c1)C(C)(C)CCC2(C)C (stereo not given)
  -6% | -18%
> COc1ccc(COC[C@H](CC(C)C)N2CCN(C(=O)c3cccc(C(F)(F)F)c3)CCC2=O)cc1
  -6% | -27%
> O=C(Nc1ccc(F)cc1)C(c1cccc(F)c1)N1CCN(C(=O)c2ccco2)CC1 (stereo not given)
  11% | -21%
> COCCN1C(=O)CN(S(C)(=O)=O)CC1(C)C(=O)NCc1ccccc1 (stereo not given)
  8% | 0%
> COc1ccccc1CNC(=O)C1(C)CCN1C(=O)C1(c2ccccc2)CC1 (stereo not given)
  8%[18.4 µM] | -19%
> O=c1[nH]c(=S)[nH]c2c1C(c1ccc(Cl)cc1)OC(CCc1ccccc1)C2 (stereo not given)
  3% | u
> COCCNc1nc(NCc2ccc(C)cc2C)c2sccc2n1
  -22% | u
> CC1(C(=O)O)CCCC2(C)c3cc(O)ccc3CCC12 (stereo not given)
  1% | -14%
> O=C(Nc1ccc2c(c1)OCCO2)C1c2ccccc2OCC(=O)N1Cc1cccnc1 (stereo not given)
  3% | -15%
> Nc1ncncc1-c1ccc(F)cc1
  2% | -1%
> O=C(O)c1cc(O)c2c(c1)[C@@H]([C@H]1c3cc(C(=O)O)cc(O)c3C(=O)c3c(O[C@@H]4O[C@H](CO)[C@@H](O)[C@H](O)[C@H]4O)cccc31)c1cccc(OC3O[C@H](CO)[C@@H](O)[C@H](O)[C@H]3O)c1C2=O (stereo not given in full)
  2%[18.4 µM] | -11%
> NC(c1ccccc1)c1csc(NC(=O)Nc2cccc(C(F)(F)F)c2)n1 (stereo not given)
  38% | -29%
> O=C(c1cccnc1)N1CCC2CC1c1c(Cl)cccc12 (stereo not given)
  18% | 6%
> CN(C(=O)c1cccc(NC(=O)Cc2ccc(NC(=O)C3CCN(C(=O)C4CC4)CC3)cc2)c1)C1CCCC1
  6% | -13%
> CCC1NC(=O)c2cc3ccccc3cc2-n2c1nc1cc(C)cc(C)c1c2=O (stereo not given)
  -5% | -25%
> O=C1[C@H](Cc2ccccc2)NCC=CC[C@@H](c2ccc(Cl)cc2)N1Cc1ccc(Cl)cc1
  20% | u
> Cc1cc(C)c(Nc2n[nH]c(=S)s2)cc1C
  -12% | -4%
> O=C(/C(=N/O)c1ccccc1)c1ccccc1
  4% | 17%
> O=C(Nc1ccccc1Cl)c1cc(C2CCCCN2C(=O)OCCF)on1 (stereo not given)
  13% | 19%
> CCCCNC(=O)C1C(c2ccc(C(F)(F)F)cc2)=Nc2ccccc2N1C(=O)c1ccc2nc(C)[nH]c2c1 (stereo not given)
  2% | 33%[activator]
> CN(C)S(=O)(=O)n1cc(/C=C(\NC(=O)c2ccccc2)C(=O)N2CCCCC2)c2ccccc21
  7% | 3%
> NC(=O)c1cccc(Nc2nc(C(N)Cc3ccc(C(F)(F)F)cc3)cs2)n1 (stereo not given)
  6% | -24%
> O=c1[nH]c2cccc(Cl)c2c2ccccc12
  0% | -9%
> COC(=O)[C@@]12C[C@@H](CC(=O)N3CCCC3)C(=O)N(Cc3ccccc3)C1=CCC(C)(C)C2
  -4% | -22%
> CC(C)COC(=O)N1CCCCC1c1cc(C(=O)NC(C)C)no1 (stereo not given)
  6% | 3%
> CCCCCCCCN1C(=O)[C@H](CC(=O)NCCC(C)C)C[C@@]2(C(=O)OC)CC(C)(C)CC=C12
  -1% | 14%
> COc1ccc(S(=O)(=O)NC(=O)C2(C)CCN2C(=O)c2ccc(C(F)(F)F)nc2C)cc1 (stereo not given)
  5% | -9%
> CSc1ccc(CN2CCN(C(=O)Cc3ccccc3)CC2)cc1
  -6% | u
> COc1ccccc1CN1[C@@H](CC(=O)O)c2ccccc2S1(=O)=O
  5% | -14%
> COc1ccc(S(=O)(=O)NC(C)c2ccc3c(c2)OCCO3)cc1 (stereo not given)
  4% | -19%
> Cc1cc(O)ccc1-c1cc(C(=O)NCc2ccc(F)cc2)[nH]n1
  12% | 18%
> Cc1cc(=O)oc2cc(OC(C)C(=O)N3CCOCC3)c(Cl)cc12 (stereo not given)
  -1% | 1%
> CC(C)(C)C(=O)NCCc1nc(-c2ccccc2)no1
  2% | -12%
> Cc1c(C(=O)NCc2ccc(C(C)C)cc2)sc(=O)n1Cc1cccc(F)c1
  -5% | -14%
> CC1OC(OC2C(CO)OC(OCC3OC(OC(=O)[C@@]45CCC(C)(C)C[C@@H]4C4=CC[C@@H]6[C@@]7(C)CCC(OC8OCC(O)C(O)C8OC8OC(C)C(O)C(O)C8O)[C@@](C)(CO)C7CC[C@@]6(C)[C@]4(C)CC5)C(O)C(O)C3O)C(O)C2O)C(O)C(O)C1O (stereo not given in full)
  7% | -21%
> CCc1nc2c(OCc3ccccc3C)cccn2c1N(C)C(=O)C(C)C
  -23% | -5%
> CC(c1nc2ccccc2[nH]1)n1c(=O)c(-c2ccco2)nc2ccccc21 (stereo not given)
  -26% | -26%
> c1ccc2c(c1)CC(N1CCCCC1)c1ccccc1S2 (stereo not given)
  -15% | -3%
> CC(C)C(N)c1csc(NC(=O)Nc2ccc(OC(F)(F)F)cc2)n1 (stereo not given)
  28% | u
> C[C@H](CO)N1C[C@H](C)[C@@H](CN(C)Cc2cccc(C(=O)O)c2)OCc2cnnn2CCCC1=O
  0% | 4%
> CCCNC(=O)C1(C)CCN1C(=O)Cc1ccc(C(C)(C)C)cc1 (stereo not given)
  1% | 9%
> COCC(=O)N(C)C[C@H]1Oc2ncc(Br)cc2C(=O)N([C@@H](C)CO)C[C@H]1C
  -2% | -24%
> COC(=O)C[C@@H]1C=C[C@@H](NC(=O)NC2CCCC2)[C@@H](CO)O1
  10% | -12%
> O=C(NCCc1ccc(Cl)cc1)c1cccc(S(=O)(=O)N2CCCC2)c1
  -5% | u
> COc1ccccc1Cc1c(-c2ccc(OC)c(OC)c2)nc2c(C)cc(Br)cn12
  -30% | -15%
> OCCCn1c(C2CCCN2c2nc(-c3ccc(Cl)cc3)cs2)nc2cc(C(F)(F)F)ccc21 (stereo not given)
  -4% | -16%
> CCC(c1nnnn1-c1c(C)cccc1C)N1CCN(CC)CC1 (stereo not given)
  -2% | -12%
> CC(=O)NN=C(C)c1ccc(NC(=O)C2CC2)cc1
  -4% | -11%
> CC1(C(=O)Nc2ccc3nc[nH]c3c2)CCN1C(=O)CCc1ccccc1 (stereo not given)
  -19% | -24%
> CCOc1ccc(S(=O)(=O)N2CCCCC2)cc1NC(=O)Cc1ccc(OC)cc1
  23% | -10%
> CCNC(=O)C1(C)CCN(C(=O)c2ccccc2F)C1 (stereo not given)
  0%[18.4 µM] | -14%
> O=C(NCC1CC1)NC(=O)c1ccccc1F
  5%[18.4 µM] | 14%
> O=C(NC1CCCC1)N[C@@H]1C=C[C@@H](CC(=O)N2CCOCC2)O[C@@H]1CO
  7% | -11%
> C(=C\c1ccccc1)/CN1CCN(C(c2cccs2)c2nnnn2Cc2ccccc2)CC1 (stereo not given)
  -12% | -26%
> C#CCN(C[C@@H]1[C@@H](OC(=O)NCc2ccccc2)[C@@H](OC(=O)NCc2ccccc2)CN(C(=O)OC(C)C)N1C(=O)OC(C)C)S(=O)(=O)c1ccc(C)cc1
  8% | u
> C1=CC2(C=C1)OC21CCC2(C=CC3(C2)OC3C2CCCCC2)CC1 (stereo not given)
  u | -5%
> CC1(C(=O)NS(=O)(=O)c2ccc(Br)cc2)CCN1C(=O)CCC1CCCC1 (stereo not given)
  9% | -14%
> N#CCN(C(=O)CSc1nnc(C2CC2)n1C1CC1)c1ccccc1
  -8% | -5%
> CN(C(=O)c1cccc(NC(=O)Cc2ccc(NC(=O)C3CCN(C(=O)C4CC4)CC3)cc2)c1)C1CC1
  5% | 0%

An excerpt of these results, field by field.
> C#CCN(C[C@@H]1[C@@H](OC(=O)NCc2ccccc2)[C@@H](OC(=O)NCc2ccccc2)CN(C(=O)OC(C)C)N1C(=O)OC(C)C)S(=O)(=O)c1ccc(C)cc1
  RE007 growth inh = 8%
  2A StopGo = u

> N#CCN(C(=O)CSc1nnc(C2CC2)n1C1CC1)c1ccccc1
  RE007 growth inh = -8%
  2A StopGo = -5%

> COC(=O)C[C@@H]1C=C[C@@H](NC(=O)NC2CCCC2)[C@@H](CO)O1
  RE007 growth inh = 10%
  2A StopGo = -12%

Going on with the list:
The line under a structure holds: RE007 growth inh | 2A StopGo
> CCCCOCCCNC(=O)C[C@@H]1C[C@@]2(C(=O)OC)CC(C)(C)CC=C2N(CCc2ccc(OC)c(OC)c2)C1=O
  -9% | -15%
> CN(C(=O)c1cccc(NC(=O)Cc2ccc(NC(=O)C3CCCN(S(=O)(=O)c4cccc([N+](=O)[O-])c4)C3)cc2)c1)C1CCCC1 (stereo not given)
  2% | -25%
> O=C(Nc1nnc([C@H]2C[C@H](O)[C@@H](CO)O2)s1)NC1CCCCC1
  0% | 14%
> CCS(=O)(=O)N1Cc2cc(C(=O)NCCOC)nc(-c3cccc(-c4ccncc4)c3)c2[C@H]1CCO
  -7% | -24%
> O=C(NCc1cccnc1)c1ccc2nc([C@@H]3O[C@H](CO)[C@H](O)[C@H](O)[C@H]3O)[nH]c2c1
  10%[18.4 µM] | -7%
> CCC/C=C/c1ccc(CN2C(CC(C)C)C(=O)N(Cc3cn(CCOCOC)nn3)CCS2(=O)=O)cc1 (stereo not given)
  -8% | -24%
> CCOC(=O)[C@]12CCCC=C1N(CCc1ccc(OC)c(OC)c1)C(=O)[C@H](CC(=O)N1CCCC1)C2
  1% | -2%
> COC(=O)CCCn1cc(CN2CC(N3CCN(C)CC3)CS2(=O)=O)nn1 (stereo not given)
  -4% | -6%
> Cc1noc(C)c1NC(=O)N(C)C[C@H]1Oc2c(cccc2N(C)C)C(=O)N([C@H](C)CO)C[C@@H]1C
  3% | 18%
> O=C(Nc1ccccc1)c1cc(C2CCCCN2C(=O)CCc2ccccc2)on1 (stereo not given)
  -2% | 21%
> CC1(C(=O)NS(=O)(=O)c2cccc(F)c2)CCN1C(=O)Cc1cccs1 (stereo not given)
  10% | -2%
> C[C@@H](NC(=O)c1ncn2c1C(=O)NC[C@@H]2C)c1ccccc1
  -3% | -21%
> CCC1=CCN(CCc2c(C)[nH]c3ccccc23)CC1
  -20% | -10%
> O=C(O)Cc1c[nH]c2ccccc12
  0% | -14%
> CC(C)(C)c1ccc(C(=O)C2CC2)cc1
  -21% | 19%
> O=C(CCC1CCN(C(=O)CC2=CCCCC2)CC1)NCc1ccc(F)cc1
  -9% | -19%
> CCc1nc2c(OCc3ccc(F)c(F)c3)cccn2c1N(C)C(=O)CC(C)C
  -21% | u
> N#Cc1cc2cc3c(cc2nc1Cl)OCCO3
  -1% | -7%
> CC1(C(=O)NCc2cccs2)Cc2c(-c3cccc(C(F)(F)F)c3)ccnc2O1 (stereo not given)
  -2%[18.4 µM] | -22%
> Cc1cccc(C)c1-n1nnnc1C1(C)CCC(=O)N1c1ccc(N2CCOCC2)cc1 (stereo not given)
  -10% | -7%
> CC[C@]12C(=O)N(C)C[C@H]([C@@H]3C(=O)N(Cc4ccccc4)C(=O)[C@@H]31)N2C(=O)c1ccc(C(F)(F)F)cc1
  -18% | -27%
> c1ccc(-c2ccc3ccccc3n2)cc1
  -20% | 53%[activator]
> CCN(CC)C(=O)C1=C(C)N(CCC2=CCCCC2)C(=O)C(CC(=O)NCC2CCCCC2)C1 (stereo not given)
  -7% | 5%
> CC(C)CNC(=O)C1(C)CCCCCN1C(=O)c1cc(C#N)cs1 (stereo not given)
  1% | -7%
> Cc1cc(C)c(C(=O)Nc2ccc3c(c2)OCCO3)c(C)c1
  -7% | 41%[activator]
> CCCN(C(=O)CSCc1ccc(C)cc1)c1c(N)n(Cc2ccccc2)c(=O)[nH]c1=O
  -7% | -8%
> COc1ccccc1NC(=O)c1ccc([N+](=O)[O-])o1
  u | -26%
> COCCNC(=O)C1(C)CCCN(C(=O)c2ccc3c(c2)OCO3)C1 (stereo not given)
  1% | -24%
> COC(=O)C[C@H]1c2ccc(C(F)(F)F)cc2S(=O)(=O)N1Cc1ccccc1
  3% | 44%[activator]
> C[C@@H]1O[C@H](C2CC2)Cc2[nH]c(=S)[nH]c(=O)c21
  6% | 0%
> Cc1cc2c3ccccc3[nH]c(=O)n2n1
  -5% | 0%
> O=C(NC(c1ccc(-c2ccccc2)cc1)c1cnccn1)C1CCN(CCOc2ccc(F)cc2)CC1 (stereo not given)
  10% | -22%
> COc1ccc(CN2CCC[C@]3(N[C@H](c4ccc(C(F)(F)F)cc4)[C@@H]4C(=O)N(C)C(=O)[C@@H]43)C2=O)cc1
  3% | u
> COC(=O)c1ccc(CN2C(=O)C(C)ON=C2c2ncccc2C)o1 (stereo not given)
  -10%[18.4 µM] | -5%
> FC(F)(F)c1cc(Cl)c2nc(-c3ccc(Cl)cc3)c(Cc3ccsc3)n2c1
  39% | -4%
